Sa growth inh: S. aureus growth inhibition at 42 and 30 °C, primary screen, LtaS inhibitor project, RN4220, two temperatures; OD600, 20 h, 42 °C; hits give low values; relative growth, % (concentration not given with the values); actives 0.53% (n = 170,000); AID 720641, 2013;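 active means growth at 42 °C up to 50% and 20 or more points under that at 30 °C, or under 10% at both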;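 further: 300 nL library stock went into each well; scaled to the means of positive and negative controls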
HCMV NEC inh: inhibitors of HCMV UL50-UL53 interaction, biochemical, HTRF; HCMV UL50-UL53 nuclear egress complex (human cytomegalovirus); normalized percent inhibition; inhibition, % (test concentration not listed); actives 0.15% (n = 190,000); AID 1918969, 2023;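 active means both replicates at 50% or more, plus weaker picks with an unusually low signal ratio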;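 further: stock transfer was 100 nL into about 20 µL; 0% = negative control wells and 100% = wells with untagged competitor protein; inactives centre near -12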
GIV-Gai inh: inhibitors of GIV peptide binding to Galpha-i3, primary screen, biochemical, fluorescence polarization, FITC-GIV GBA peptide, rat Galphai3; Guanine nucleotide-binding protein G(i) subunit alpha-3 (Rattus norvegicus), P08753; 90 min; hits give low values; scaled: aluminum fluoride 0%, vehicle 100%; percent of control (FP), % (no concentration beside the values); actives 0.42% (n = 210,000);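 active means replicate mean at 85% of control or lower, very high polarization wells dropped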;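 further: wells of about 15 µL received 100 nL stock; the first replicate is given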
Target sequence (P08753 whole entry, looked up): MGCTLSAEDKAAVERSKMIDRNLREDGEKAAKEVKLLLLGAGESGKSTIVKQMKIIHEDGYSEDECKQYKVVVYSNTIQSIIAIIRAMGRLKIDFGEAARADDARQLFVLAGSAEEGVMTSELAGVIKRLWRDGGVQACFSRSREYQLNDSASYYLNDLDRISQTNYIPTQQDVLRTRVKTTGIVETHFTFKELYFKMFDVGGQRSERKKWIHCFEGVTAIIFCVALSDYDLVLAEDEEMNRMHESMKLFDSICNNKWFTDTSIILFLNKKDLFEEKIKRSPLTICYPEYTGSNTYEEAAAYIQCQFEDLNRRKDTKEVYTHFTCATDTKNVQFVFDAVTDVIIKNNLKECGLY
Sa growth inh second temp: recorded beside Sa growth inh, whose call it bears; relative growth, %; measured here: growth at 30 °C;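 optical density after 20 h as mean of two plates; 100% = untreated growth and lower means inhibition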
An asterisk follows results filed as active; x = no result given; & = joins results of further samples.

Sample of the layout:
item	Structure	Sa growth inh	Sa growth inh second temp
1	CCOc1cc(C=C2C(=O)NC(=S)NC2=O)ccc1OCCOc1ccccc1OC	x	x
2	COC(=O)CC1SC(=O)N(CNc2ccc([N+](=O)[O-])cc2)C1=O (configuration not stated)	x	x
3	O=C(C1CCCCC1)N1CC(OCc2ccc(F)cc2)C1	x	x
4	N#CCCCSc1nnc(-c2ccccc2F)n1-c1ccccc1	88	91
5	Cc1ccsc1C(=O)Nc1nccs1	101	82
6	Fc1ccc(OCCc2nc(-c3ccc(Cl)cc3)no2)cc1	80	78
7	CCOc1cc(C(=O)Nc2ccc(O)c(-c3nc4ccccc4o3)c2)cc(OCC)c1OCC	x	x
8	O=C(O)c1ccc2c(=O)nc3c(-c4cccc(F)c4)n[nH]n3c2c1	x	x
9	Cc1cc(C)n(Cc2c(Cl)cccc2Cl)n1	93	96
10	COc1ccc(Cn2c(C)c(CNC(C)(C)C)c(C(=O)O)c2C)cc1	106	96

item	HCMV NEC inh	GIV-Gai inh
1	-11	95
2	-96	98
3	-9	101
4	-8	x
5	-5	x
6	3	99
7	-22	97
8	-27	94
9	20	99
10	-3	107

item	Structure	Sa growth inh	Sa growth inh second temp
11	CCOc1cccc(OCC)c2c(C)nc(C)c1-2	105	80

item	HCMV NEC inh	GIV-Gai inh
11	-74	x

The whole of this part (from the top)
item	Structure	Sa growth inh	Sa growth inh second temp
1	CCOc1cc(C=C2C(=O)NC(=S)NC2=O)ccc1OCCOc1ccccc1OC	x	x
2	COC(=O)CC1SC(=O)N(CNc2ccc([N+](=O)[O-])cc2)C1=O (configuration not stated)	x	x
3	O=C(C1CCCCC1)N1CC(OCc2ccc(F)cc2)C1	x	x
4	N#CCCCSc1nnc(-c2ccccc2F)n1-c1ccccc1	88	91
5	Cc1ccsc1C(=O)Nc1nccs1	101	82
6	Fc1ccc(OCCc2nc(-c3ccc(Cl)cc3)no2)cc1	80	78
7	CCOc1cc(C(=O)Nc2ccc(O)c(-c3nc4ccccc4o3)c2)cc(OCC)c1OCC	x	x
8	O=C(O)c1ccc2c(=O)nc3c(-c4cccc(F)c4)n[nH]n3c2c1	x	x

item	HCMV NEC inh	GIV-Gai inh
1	-11	95
2	-96	98
3	-9	101
4	-8	x
5	-5	x
6	3	99
7	-22	97
8	-27	94

The list goes on:
item	Structure	Sa growth inh	Sa growth inh second temp
9	Cc1cc(C)n(Cc2c(Cl)cccc2Cl)n1	93	96
10	COc1ccc(Cn2c(C)c(CNC(C)(C)C)c(C(=O)O)c2C)cc1	106	96
11	CCOc1cccc(OCC)c2c(C)nc(C)c1-2	105	80
12	C=CCn1c(=O)c(=O)n(Cc2ccc(C(=O)NCCc3ccccc3C)cc2)c2ccccc21	x	x
13	O=S(=O)(Cc1ccccc1)N1CCC(On2nnc3ccccc32)CC1	82	103
14	Cc1cccc(NC(=O)CNC(=O)c2ccc3c(=O)[nH]c(CN4CCOCC4)nc3c2)c1C	99	104
15	CCCOC(=O)c1ccc(NC(=O)/C=C/c2ccccc2)cc1	88	74
16	CC(C(=O)O)n1nnc2ccccc21 (configuration not stated)	90	89

item	HCMV NEC inh	GIV-Gai inh
9	20	99
10	-3	107
11	-74	x
12	-16	102
13	-36	102
14	17	x
15	x	99
16	-18	99&103

Next results follow:
item	Structure	Sa growth inh	Sa growth inh second temp
17	O=c1cc(N2CCOCC2)nc2n1CCCS2	x	x
18	COc1ccc(Nc2ncnc3c2c(-c2ccccc2)cn3-c2ccc(C)c(Cl)c2)cc1OC	115	88
19	CCCc1nc2ccccc2[nH]1	95	83
20	Cc1cc(C(=O)N2CCc3ccccc3C2)on1	x	x
21	CCOC(=O)c1sc(SCC(=O)c2ccc(Cl)cc2Cl)nc1C	128	88
22	CCN(CC)C(=O)Cn1c(=O)n(CCCCCC(=O)NCc2ccc3c(c2)OCO3)c(=O)c2sccc21	90	97
23	COc1ccc(N=c2cc(-c3ccc(OC)cc3)oc3ccc(O)cc23)cc1	22	32
24	CCc1ccc(OCC(=O)Nc2ccc(-c3nc4ccccc4o3)c(O)c2)cc1	90	87

item	HCMV NEC inh	GIV-Gai inh
17	8	108
18	x	103
19	-40	x
20	-4	99
21	-36	107
22	-2	108
23	x	106
24	-28	101

Next part:
item	Structure	Sa growth inh	Sa growth inh second temp
25	Cc1cc2nc(N3C(=N)SCC3=O)sc2cc1C	98	88
26	Cn1cnnc1SCC(N)=O	82	96
27	COc1ccc(C2CC(=O)C3=C(C2)Nc2onc(C)c2C3c2cccc(OC)c2OC)cc1 (configuration not stated)	x	x
28	CCc1ccc(CNC(=O)CN(C)c2nnc(N3CCCC3=O)s2)cc1	86	80
29	CC1OCC(OC(=O)c2ccccc2)CO1 (configuration not stated)	76	104
30	CC(C)C(NC(=O)Cc1ccccc1)C(=O)N1CCN(S(=O)(=O)c2ccccc2C#N)CC1 (configuration not stated)	107	88
31	NNC(=O)c1ccc(NN)cn1	106	60
32	Cc1cccc(NC(=O)CSCc2n[nH]c(=O)[nH]2)c1C	99	95

item	HCMV NEC inh	GIV-Gai inh
25	-20	98
26	17	100
27	-14	100
28	-21	104
29	11	103
30	-25	x
31	-28	x
32	-14	102

Later entries
item	Structure	Sa growth inh	Sa growth inh second temp
33	CN1CCN(c2ccc(NC(=O)CSc3ccc(Cl)cc3)cc2)CC1	97	87
34	COc1cccc(-c2nnc(NC(=O)c3ccc(S(=O)(=O)N4CCCCC4C)cc3)o2)c1 (configuration not stated)	2.4*	0.3*
35	O=C(O)CC(c1ccncc1)c1c[nH]c2ccccc12 (configuration not stated)	103	72
36	Cc1ccn(CCC(=O)Nc2cccc(C(F)(F)F)c2)n1	103	81
37	CN(CC(=O)Nc1ccc(F)cc1)C(=O)CSc1nnc(Cc2ccccc2)o1	93	92
38	O=C(COc1ncnc2cc(Cl)ccc12)c1ccccc1	94	88
39	O=C(Cn1c(=O)nc(-c2ccccc2)c2cc(Cl)ccc21)NCCCc1ccccc1	95	84
40	CC1(C)CC(=O)c2c(noc2-c2ccccc2)C1	118	90

item	HCMV NEC inh	GIV-Gai inh
33	-17	99
34	x	106
35	-5	104
36	-19	95
37	-26	x
38	-7	101
39	-33	104
40	-10	102

(more compounds)
item	Structure	Sa growth inh	Sa growth inh second temp
41	CCOC(=O)c1cnc(O/N=C/c2ccc(F)cc2)nc1C(F)(F)F	96	95
42	CCOC(=O)C1CCCN(C(=O)c2cccc3ccccc23)C1 (configuration not stated)	96	91
43	Cn1c(=O)c2c(SCC(=O)Nc3ccccc3C(F)(F)F)nc(C3CCCC3)nc2n(C)c1=O	78	93
44	COc1ccc(C(=O)Nc2noc3ccccc23)cc1	109	81
45	Cc1ccc(C(=O)/C=C/Nc2ccc(C(F)(F)F)cc2)cc1	85	90
46	CCc1cc2c(cc3c(=O)n(CC(=O)N4CCN(c5cc(Cl)ccc5C)CC4)ncn32)s1	123	85
47	COCC(C)n1c(C)cc(C(=O)COC(=O)c2ccc3c(c2)S(=O)(=O)N=C2CCCCCN23)c1C (configuration not stated)	80	100
48	O=C(CCCCn1c(=O)[nH]c2ccsc2c1=O)N1CCN(c2cccc(C(F)(F)F)c2)CC1	89	88

item	HCMV NEC inh	GIV-Gai inh
41	-13	100
42	-18	x
43	x	98
44	-15&-29	105&98
45	-7	107
46	-15	99
47	-21	x
48	-11	107

(further entries)
item	Structure	Sa growth inh	Sa growth inh second temp
49	O=C(c1ccccc1)N1CCN(c2ncccn2)CC1	81	93
50	CNC(=O)n1ccc(C(=O)N2CCCCC2)n1	96	104
51	Cc1onc(-c2ccccc2)c1C#N	x	x
52	O=C(CCCCn1c(=O)[nH]c2ccsc2c1=O)NCC1CCCO1 (configuration not stated)	101	86
53	CCOC(=O)C1=C(CSc2nc(-c3ccncc3)ccc2C#N)OC(N)=C(C#N)C1c1cccnc1 (configuration not stated)	x	x
54	CCN(CC)S(=O)(=O)c1ccccc1	121	86
55	O=C(Nc1ccc(F)cc1)NC1(C(=O)O)CCCCC1	107	90
56	CC(C)NC(=O)N1CCn2cccc2C1Cc1ccccc1 (configuration not stated)	93	85

item	HCMV NEC inh	GIV-Gai inh
49	-9	x
50	5	104
51	-6	99
52	0	104
53	-54	107
54	-34	x
55	-8	103
56	-14	111

Next compounds follow.
item	Structure	Sa growth inh	Sa growth inh second temp
57	COC(=O)CCn1cc(C=C2C(=O)NC(=O)NC2=O)c(-c2ccccc2)n1	82	86
58	CCOc1ccc(NC(C)c2cc(Cl)ccc2O)cc1 (configuration not stated)	109	97
59	O=C(O)c1cnn2c(C(F)(F)F)cc(-c3cccs3)nc12	109	89
60	Cc1ccc(CNC(=O)CCCn2c(=O)c3sccc3n(CC(=O)N3CCCCC3C)c2=O)cc1 (configuration not stated)	94	90
61	O=C(Cn1cnc2c(cnn2-c2ccccc2)c1=O)NC1CCCC1	100	86
62	CCN(CC)c1cccc(OCC(=O)NCc2cccs2)c1	108	87
63	CC(SCC(=O)NC12CC3CC(CC(C3)C1)C2)C(=O)O (configuration not stated)	115	78
64	O=C(CN(CC(=O)Nc1ccc2c(c1)OCCO2)S(=O)(=O)c1ccccc1)Nc1ccc2c(c1)OCCO2	82	95

item	HCMV NEC inh	GIV-Gai inh
57	-5	x
58	-13	102
59	-126	111
60	3	108
61	-5	106
62	-13	x
63	-30	x
64	17	x

Other records
item	Structure	Sa growth inh	Sa growth inh second temp
65	Cn1cnnc1SCC(=O)Nc1ccc(Cl)cn1	x	x
66	Cc1nc(-c2cccc(NC(=O)c3ccco3)c2)cs1	107	88
67	COc1ccc(O)c(C(=O)c2cnn(C(=O)c3cccc(S(=O)(=O)N4CCOCC4)c3)c2)c1	91	84
68	Cc1ccc(NC(=O)C2CCN(c3nnc(C)c4c(C)n(-c5ccccc5)nc34)CC2)cc1Cl	117	95
69	CCc1nn(CC(=O)N(C)Cc2ccccc2)c(=O)c2cc3occc3n12	101	75
70	COc1ccccc1CNC(=O)NCc1noc2ccc(C)cc12	110	84
71	CC1=NN(c2cccc(Cl)c2)C(=O)/C1=C\N1CCOCC1	107	94
72	CC1CCC(NC(=O)CCCn2ncn3c(cc4occc43)c2=O)CC1 (configuration not stated)	99	96

item	HCMV NEC inh	GIV-Gai inh
65	13	108
66	-13	107
67	-20	x
68	x	104
69	-3	104
70	x	106
71	-6	x
72	-1	108

Later entries:
item	Structure	Sa growth inh	Sa growth inh second temp
73	Cc1ccc(-c2noc(CN(C3CCCCC3)S(=O)(=O)c3ccc(F)cc3)n2)cc1	106	86
74	COc1ccc(-c2nc3c(c(SCC(=O)N4CCCCC4)n2)Cc2c(CO)cnc(C)c2O3)cc1	121	94
75	C=CCn1c(SCC(=O)N(CCO)CCO)nc2sc3c(c2c1=O)CCC3	x	x
76	CC1CCN(C2=NN3C(=N)/C(=C\c4ccc(SCc5ccco5)o4)C(=O)N=C3S2)CC1	99	71
77	C=CCn1c(C(C)NC(=O)CC)nc2ccccc21 (configuration not stated)	114	95
78	COc1cc(OC)cc(C2=NC3(CCC(C)CC3)NC2=O)c1 (configuration not stated)	90	88
79	CC(C)(C)OC(=O)N1CCC(c2c(C(=O)N3CCN(c4ccccc4)CC3)cnn2-c2ccccc2)CC1	81	89
80	CCCCN1C(=O)c2ccc(C(=O)Nc3cccnc3)cc2C1=O	112	94
81	CCn1nc(C(=O)N/N=C/c2cccc(OC)c2)c2ccccc2c1=O	94	91
82	Cc1ccccc1COC(=O)c1nnn(-c2ccccc2)c1C	x	x
83	COC(=O)/C(=C(/O)CSc1nnc(-c2cccc(S(=O)(=O)N3CCCCC3)c2)o1)c1nc2ccccc2[nH]1	92	97

item	HCMV NEC inh	GIV-Gai inh
73	-27	105
74	x	111
75	-32	102
76	-52	116
77	x	100
78	-18	103
79	x	108
80	-87	104
81	-17	x
82	-27	100
83	-3	x
